Source: PubChem (National Center for Advancing Translational Sciences (NCATS))
gsp ag – activates gsp, the McCune-Albright syndrome mutation; gsp mutant cells, cAMP HTRF, 30 min; control for the full effect not named in the record; Potency, µM (top dose mostly 76.9 µM), for the others: top-dose activation (cAMP increase), actives largely listed as activators; 340,000 compounds, 0.13% hits; AID 624287; active = well fitted activation curve with a large enough effect; inconclusive = small, poorly fitted or top-dose-only effect, or another doubt; inactive = no such curve, though single readings can be large or run the other way; cell line not stated here;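 further: phosphodiesterase inhibitor Ro 20-1724 added with compounds to block cAMP breakdown; potency means the concentration at half of the fitted maximal effect; nearly all actives have a fitted effect of over 60% in size; about a fifth of the inactives were tested at one dose only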
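Cells in DMEM/10% FBS with G418 were pretreated with compounds in DMSO plus […] (300 uM stock) for 30 min at 37C. cAMP was measured by HTRF (cAMP-d2 plus anti-cAMP antibody-K) after 30 min at room temperature.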
TRPV1 potentiator – potentiators of human vanilloid receptor 1 (TRPV1); Q8NER1; TRPV1-expressing cells, Fluo-8 calcium influx, capsaicin EC20 potentiation; host cell line not named in the record; control for the full effect not named in the record; potentiation, % at 8.33 µM; 320,000 compounds, 0.02% hits; AID 540277; active means potentiation above 80%; inconclusive means 30% to 80%; inactive means below 30%; further: 0% is about no effect
Target sequence (Q8NER1 whole entry, looked up): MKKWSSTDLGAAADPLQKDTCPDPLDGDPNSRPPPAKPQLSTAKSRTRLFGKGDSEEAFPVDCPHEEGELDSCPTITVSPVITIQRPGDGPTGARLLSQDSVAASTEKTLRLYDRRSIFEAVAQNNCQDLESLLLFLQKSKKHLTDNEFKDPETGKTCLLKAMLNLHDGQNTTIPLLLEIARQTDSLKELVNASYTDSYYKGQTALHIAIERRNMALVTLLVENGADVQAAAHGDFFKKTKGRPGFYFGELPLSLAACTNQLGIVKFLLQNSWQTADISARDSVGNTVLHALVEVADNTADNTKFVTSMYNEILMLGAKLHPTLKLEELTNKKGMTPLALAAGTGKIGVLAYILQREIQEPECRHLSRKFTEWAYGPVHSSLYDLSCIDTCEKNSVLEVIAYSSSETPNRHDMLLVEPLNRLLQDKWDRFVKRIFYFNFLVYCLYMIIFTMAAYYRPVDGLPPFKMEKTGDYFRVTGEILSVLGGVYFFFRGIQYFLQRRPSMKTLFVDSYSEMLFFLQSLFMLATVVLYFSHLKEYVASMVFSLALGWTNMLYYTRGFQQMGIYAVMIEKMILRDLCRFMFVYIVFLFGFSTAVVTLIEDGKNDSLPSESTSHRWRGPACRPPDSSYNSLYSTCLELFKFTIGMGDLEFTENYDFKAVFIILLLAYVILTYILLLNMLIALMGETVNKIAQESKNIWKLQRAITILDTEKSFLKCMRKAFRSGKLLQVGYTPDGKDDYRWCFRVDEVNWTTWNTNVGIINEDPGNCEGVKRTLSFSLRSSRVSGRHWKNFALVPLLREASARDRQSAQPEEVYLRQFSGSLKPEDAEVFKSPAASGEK
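Fluo-8 calcium influx in TRPV1-expressing cells, kinetic read (ex 480/em 520 nm). Compound added and read 3 min for agonist activity, followed by capsaicin at EC20 final and 2 min further read for enhancement.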
ClpP mod – qHTS Assay for Activators of ClpP. 340,000 compounds, 1.9% hits. purified B. subtilis ClpP, FRET peptide cleavage, 20 min. ATP-dependent Clp protease proteolytic subunit (Bacillus subtilis (strain 168)), P80244. Potency, µM (series often up to 57.5 µM), without a hit: at the highest dose activity change, negative = active; active = well fitted falling curve with a large enough effect; inconclusive = small, poorly fitted or top-dose-only effect; inactive = no such curve, though single readings can be large or run the other way; further: potency means the concentration at half of the fitted maximal effect; the source files actives as falling curves though it sought activators and does not explain the sign; nearly all actives have a fitted effect of over 65% in size; many hits overshoot -100%
Target sequence (P80244 whole entry, looked up): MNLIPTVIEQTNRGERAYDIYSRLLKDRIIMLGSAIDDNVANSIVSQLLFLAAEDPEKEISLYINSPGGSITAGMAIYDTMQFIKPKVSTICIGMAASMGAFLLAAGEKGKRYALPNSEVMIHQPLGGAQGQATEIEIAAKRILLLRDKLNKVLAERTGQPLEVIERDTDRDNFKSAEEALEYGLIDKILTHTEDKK
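ClpP 10 microg/mL final, pH 8 Tris/KCl buffer with BSA, glycerol, Tween-20; compound pinned in; FRET-FV substrate; RT 20 min; Ex320/Em430; ΔFRET vs ADEP 5.8 microM, DMSO, no enzyme.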
Menin-MLL FL inh – displaces fluorescein MLL peptide from human menin | Fluorescence polarization, fluorescein-MLL peptide displacement from menin | FP activity change, % at 61.4 µM | 290,000 tested, under 10 active; inconclusive = falling polarisation curve, or a change in total fluorescence; inactive = total fluorescence flat and polarisation flat or rising; no compound was filed as active; the % refers to the polarisation; negative = inhibition;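 further: % of control where 0% means no effect; inhibitors lower the polarisation; unlabelled MLL peptide was the positive control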
gsp antag – antagonists of gsp mutant (McCune-Albright syndrome); gsp-mutant cells, cAMP HTRF, 30 min; control for the full effect not named in the record; Potency, µM (highest dose often 76.9 µM), for inactives: top-dose activity change, negative = inhibition, most hits filed as inhibitors; 340,000 compounds, 0.4% hits; active = falling curve of any shape with a large fitted effect; inconclusive = falling curve, mostly with a smaller effect; inactive = flat or rising curve; cell line not stated here;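 further: intracellular cAMP measured with PDE inhibitor Ro 20-1724 present during compound exposure; potency means the concentration at half of the fitted maximal effect; on the % scale 0 is the no-effect control and ±100 the full control effect; nearly all actives have a fitted effect of over 65% in size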
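Measurement of cellular cAMP by homogeneous time-resolved fluorescence following a 30 min compound exposure at 37C. The PDE inhibitor […] was present throughout; the assay buffer was DPBS with 0.05% BSA and 0.005% Tween 20.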
Sfp PPTase inh – inhibitors of Bacillus subtilis Sfp phosphopantetheinyl transferase; Q9F4F7; Biochemical Sfp PPTase activity, qHTS; Potency, µM, inactives show max response, negative = inhibition, most hits filed as inhibitors; 310,000 compounds, 3.5% hits; AID 1490; active means well fitted inhibition curve with a large enough effect; inconclusive means small, poorly fitted or top-dose-only effect, or another doubt; inactive means no such curve, though single readings can be large or run the other way;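 further: the enzyme is Sfp with the accession as filed and its product quenches rhodamine fluorescence; potency means the concentration at half of the fitted maximal effect; 0% = enzyme reaction without inhibitor and -100% = no enzyme wells; top concentration of the series not given in the record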
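Compounds were incubated with enzyme (final 15 nM) for 15 min at room temperature before substrate addition started the reaction. Fluorescence at 525 nm excitation, 598 nm emission was recorded immediately and after 30 minutes.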
CtBP-E1A inh – blocks the CtBP interaction with E1A; AlphaScreen GST-E1A/His-CtBP binding, 1536-well; stronger effect = lower value; control for the full effect not named in the record; activity change, % (no concentration beside the values); 340,000 compounds, 0.49% hits; AID 651724; in the data active means activity change below about -65%; inconclusive means about -30% to -65%; inactive means above about -30%; further: on the % scale 0 is the no-effect control and ±100 the full control effect
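Homogeneous bead-based format: GST-tagged E1A captured on glutathione donor beads, His-tagged CtBP on nickel acceptor beads; compounds precede bead addition by 2 h at 37 °C.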
* marks the source's active call; other numbers are inactive results; ? = inconclusive; / = no result given; & = joins results of further samples; [ ] = remark or other dose.

SMILES | gsp ag | TRPV1 potentiator | ClpP mod | Menin-MLL FL inh | gsp antag | Sfp PPTase inh | CtBP-E1A inh
CC(C)CCn1c(=O)c2ccccc2n2c(COC(=O)c3ccc(S(=O)(=O)N(C)C)cc3)nnc12 | / | 6.6 | / | 0.8 | / | 2.5% | /
COc1cccc(N(Cc2nnc3n2CCCCC3)C(=O)Nc2ccccc2)c1 | -13.9% | 1.7 | 1.8%&0.2% | 0.0 | 1.4% | 17.6% | 1.2
O=C(Cn1c(=O)cnc2ccccc21)N1CCN(S(=O)(=O)c2ccc(F)cc2)CC1 | -3.9% | -2.1 | -0.5% | / | 7.7% | / | -1.8
CC1CCC(C(=O)NC(C(=O)NCc2cccnc2)C(C)C)CC1 (centres undefined) | -31.2%[inhibitor] | -11.9 | 0.1% | -0.7 | 1.0% | 0.8% | -0.6
O=C(CN1CCSCC1)c1c[nH]c2ccccc12 | -18.1% | -6.2 | -10.4% | 3.5 | 7.4% | 5.4% | 9.7
COc1cccc(OC)c1C(=O)Nc1nnc(-c2cccs2)s1 | 27.2% | -3.2 | -25.4% | 0.5 | -8.3% | -27.8% | 1.3
O=C(CCC(=O)OCC(F)(F)C(F)F)Nc1ccccc1F | 0.3%[15.4 µM] | 9.8 | / | -1.2 | 11.9% | 3.0% | -2.8
COc1ncnc2c1ncn2CCCNCCN1CCOCC1 | -11.4% | / | 1.3% | / | / | / | 6.8
N#Cc1c(-c2ccc(Cl)cc2)ccn2nc(CCC(=O)O)nc12 | -4.2% | -8.8 | 25.1µM* | -2.6 | 23.4% | 0.6% | 9.3
CCC(=O)n1nc(-c2ccc(OC)cc2)nc1SC | 1.9% | -4.9 | -1.8% | 1.6 | 9.2% | 9.9% | -1.0
CC(C)(C)C(=O)NC1(C(F)(F)F)NC(=O)N(Cc2ccccc2)C1=O (centres undefined) | 0.5%[15.4 µM] | 2.5 | 2.9% | 3.4 | 6.0% | -2.9% | 7.5
O=C(CC(Cc1ccccc1)C(=O)O)Nc1ccccc1 (centres undefined) | -2.3% | 0.3 | -0.6% | -5.2 | 5.9% | 7.7% | /
COc1ccc(-c2cc3nc4n(c(=O)c3s2)CCC4)cc1 | 15.8µM* | -9.5 | 106.2% | -2.6 | 4.9% | 17.2% | -1.7
O=Cc1ccc(O)cc1O | / | 4.5 | -1.3% | 5.4 | 6.5% | 9.0% | 10.5
COc1ccccc1C(=O)NC(=S)Nc1ccc(NC(=O)c2cccs2)cc1 | -12.2% | -3.3 | 1.4% | / | 13.8% | ? | -4.8
CCCn1c(NC(=O)CSCC(=O)Nc2cc(C)on2)nc2ccccc21 | -14.8% | 7.9 | -6.4% | / | -6.3% | / | -20.5
COc1cc2nc(C3CCC3)nc(N3CCN(c4ccccn4)CC3)c2cc1OC | -0.3%[15.4 µM] | -3.1 | -9.4% | -2.7 | 19.3% | 79.4µM* | -3.6
Cc1ccc(OCCSc2nnc(C)c(=O)n2N)cc1 | -14.4%[15.4 µM] | -7.3 | / | -3.5 | 4.1% | 15.2% | 2.9
CCCOc1c(Br)cc(C(N)=O)cc1OCC | 6.0% | -2.2 | -1.1% | -0.4 | 5.6% | 7.7% | -15.8
COc1ccc(N(CC(=O)N2CCC(Cc3ccccc3)CC2)S(C)(=O)=O)cc1 | -3.2%[15.4 µM] | 1.6 | / | 0.0 | 1.4% | 2.2% | 1.6
CC1(C)Cc2noc(N)c2C(C)(C)N1O | -32.7%[inhibitor] | 5.0 | -2.6% | -8.4 | 2.3% | ? | -3.7
ONC(=Nc1ccccc1)c1ccccc1Cl | 17.7% | 4.6 | 0.7% | 0.0 | 12.7% | 17.4% | 4.4
O=C(CCC(=O)c1cccs1)Nc1nnc(C2CC2)s1 | -21.9% | -0.6 | -2.1% | 4.8 | -16.8% | 13.3% | -1.9
CC(/C=C/c1ccco1)=N\NC(=O)c1cccc(Cl)c1 | -1.7% | 7.5 | -2.6% | 3.0 | -2.6% | ? | -8.3
Cc1cccc2sc(N3CCN(C(=O)c4cccs4)CC3)nc12 | -2.8%[15.4 µM] | 6.7 | -1.9% | / | ? | / | 0.0

Part of the list above in order of heavy-atom count, smallest number first.
SMILES | gsp ag | TRPV1 potentiator | ClpP mod | Menin-MLL FL inh | gsp antag | Sfp PPTase inh | CtBP-E1A inh
O=C(CN1CCSCC1)c1c[nH]c2ccccc12 | -18.1% | -6.2 | -10.4% | 3.5 | 7.4% | 5.4% | 9.7
O=C(CCC(=O)c1cccs1)Nc1nnc(C2CC2)s1 | -21.9% | -0.6 | -2.1% | 4.8 | -16.8% | 13.3% | -1.9
Cc1cccc2sc(N3CCN(C(=O)c4cccs4)CC3)nc12 | -2.8%[15.4 µM] | 6.7 | -1.9% | / | ? | / | 0.0

(listing goes on)
SMILES | gsp ag | TRPV1 potentiator | ClpP mod | Menin-MLL FL inh | gsp antag | Sfp PPTase inh | CtBP-E1A inh
CCNC(=O)Nc1cc(OC)c(OC)cc1C(=O)O | -1.1% | 5.9 | 0.7% | ? | 7.4% | -20.2% | -0.9
Clc1ccc(-c2nnc(NC3=NCCCCC3)o2)cc1 | 16.4% | -9.0 | -0.7% | 1.8 | -3.3% | 7.9% | 5.1
COc1ccccc1C(=O)NC(CCSC)C(=O)OCC(=O)N1CCN(S(=O)(=O)c2ccc(C)cc2)CC1 (centres undefined) | -18.5% | / | -1.7% | / | -18.2% | / | 0.0
OCCC1CN(Cc2cn[nH]c2C2CCCCC2)CCN1Cc1ccccc1 (centres undefined) | ? | 5.4 | 0.9% | -0.5 | -0.3% | 17.9% | 1.9
CSc1ccc(S(=O)(=O)Nc2ccc(OCC(=O)N3CCOCC3)cc2)cc1 | 12.0%[15.4 µM] | ? | / | 0.5 | 5.2% | -24.6% | 5.1
CCOCCCNC(=S)N1CCC(C(=O)c2ccc3c(c2)OCCO3)CC1 | -3.4% | -8.6 | -6.2% | 0.8 | -2.3% | -13.5% | 7.5
O=C(O)/C(=N/NC(=O)c1ccc(Cl)cc1)c1ccccc1 | 30.1% | -13.8 | -0.2% | 3.5 | 3.0% | 11.3% | /
O=C(CCS(=O)(=O)c1cccs1)NC1CCCCCC1 | 7.5% | 0.6 | -1.5% | 3.7 | 1.5% | 2.9% | 0.3
Cc1ccc(NC(=O)CS(=O)CC(=O)NCCCc2ccccc2)cc1Cl (centres undefined) | 0.2% | 8.5 | 1.2% | 2.8 | -4.0% | 9.9% | 49.3
Cc1ccsc1C(=O)Nc1ccc(O)c(-c2nc3ccccc3s2)c1 | 1.1%[15.4 µM] | 4.8 | -0.8% | 4.7 | ? | -7.8% | 2.8
Cc1ccc(NC(=O)c2sc3ncn(CC(=O)N4CCOCC4)c(=O)c3c2C)c(Br)c1 | 25.0% | -1.9 | 11.8% | / | 17.2% | 10.1% | 4.5
CCOc1ccccc1OCCCC(=O)Nc1ccc(S(=O)(=O)Nc2cc(C)nc(C)n2)cc1 | -0.7% | / | 1.4% | / | -13.5% | / | /
O=c1c2ccccc2ccc2ccccc12 | 22.7% | 2.0 | -11.6% | / | -2.8% | / | 13.3
CCCC(=O)NC(=S)Nc1ccc(C(C)=O)cc1 | 6.9% | -13.8 | 1.6% | 3.6 | 2.4% | -20.4% | -17.7
Cc1ccc(/C=N/Nc2ccccn2)s1 | -1.2%[15.4 µM] | 16.6 | / | -0.1 | -0.8% | ? | -20.9
S=C(NCCc1ccccc1)Nc1ccc(Br)cn1 | 18.9%[15.4 µM] | -8.5 | -0.1% | -4.7 | -1.1% | -2.0% | -5.4
N#Cc1ccc(NC(=O)Cn2cnc(S(=O)(=O)N3CCCC3)c2)cc1 | 3.2% | 7.1 | -4.5% | -4.3 | 7.3% | 0.3% | -9.2
CCOC(=O)CCNC(=O)N1CCCC(C(=O)c2cccc(OC(C)C)c2)C1 (centres undefined) | -3.4%[15.4 µM] | -15.0 | 1.0% | -1.3 | -8.6% | 13.6% | -0.4
O=C(CSc1cccc2cccnc12)Nc1cc(C(=O)O)cc(C(=O)O)c1 | 22.9% | -10.2 | / | 0.1 | -0.6% | -26.1% | -83.3*
CCC(=O)c1cn(CCOc2ccccc2OC)c2ccccc12 | 3.0%[15.4 µM] | -0.2 | -2.9% | 2.3 | ? | 3.0% | 14.6
O=S(=O)(NCc1csc(-c2cccs2)n1)c1cccs1 | 3.7% | -0.1 | / | 3.1 | 3.0% | 16.2% | -3.4
CCN(CC)C(=O)C1=C(C)N(Cc2ccccc2)C(=O)C(CC(=O)NCc2ccco2)C1 (centres undefined) | ? | / | -0.1% | / | / | / | 0.2
CCC(C)n1c(-c2cc(OC)c(OC)c(OC)c2)nc2nc3ccccc3nc21 (centres undefined) | / | -21.5 | / | 5.9 | / | -13.2% | /
CC1CCc2c(sc(NC(=O)COC(=O)c3ccc(NC(=O)CC#N)cc3)c2C#N)C1 (centres undefined) | -4.7%[15.4 µM] | -1.4 | / | / | 2.8% | / | -14.4
N#Cc1cc(-c2ccccc2)cnc1Sc1ccccc1 | -7.8% | / | -15.7% | 2.2 | -21.3% | -9.4% | 51.1
NNC(=O)c1nc2ccccc2s1 | -89.6%[inhibitor] | / | -6.0% | / | / | / | 16.9

5 entries drawn at random from those above, as already listed:
SMILES | gsp ag | TRPV1 potentiator | ClpP mod | Menin-MLL FL inh | gsp antag | Sfp PPTase inh | CtBP-E1A inh
O=S(=O)(NCc1csc(-c2cccs2)n1)c1cccs1 | 3.7% | -0.1 | / | 3.1 | 3.0% | 16.2% | -3.4
COc1ccccc1C(=O)NC(CCSC)C(=O)OCC(=O)N1CCN(S(=O)(=O)c2ccc(C)cc2)CC1 (centres undefined) | -18.5% | / | -1.7% | / | -18.2% | / | 0.0
CC1CCc2c(sc(NC(=O)COC(=O)c3ccc(NC(=O)CC#N)cc3)c2C#N)C1 (centres undefined) | -4.7%[15.4 µM] | -1.4 | / | / | 2.8% | / | -14.4
Cc1ccsc1C(=O)Nc1ccc(O)c(-c2nc3ccccc3s2)c1 | 1.1%[15.4 µM] | 4.8 | -0.8% | 4.7 | ? | -7.8% | 2.8
CCC(C)n1c(-c2cc(OC)c(OC)c(OC)c2)nc2nc3ccccc3nc21 (centres undefined) | / | -21.5 | / | 5.9 | / | -13.2% | /
